Screens as filed in PubChem.
HCMV UL50-53 inh – inhibitors of HCMV UL50-UL53 interaction, biochemical, HTRF; HCMV UL50-UL53 nuclear egress complex (human cytomegalovirus); normalized percent inhibition; inhibition, % (no concentration beside the values); hit rate 0.15% among 190,000;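 active = both replicates at 50% or more, plus weaker picks with an unusually low signal ratio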;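 note: stock transfer was 100 nL into about 20 µL; 0% = negative control wells and 100% = wells with untagged competitor protein; inactives centre near -12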
* marks the source's active call; other numbers are inactive results; & = joins results of further samples.

Start of the data: the first three records, to show the layout:
SMILES | HCMV UL50-53 inh
Nc1ncnc2c1C(=O)N(c1ccc(C3CCC(CC(=O)O)CC3)cc1)CCO2 (stereo not drawn) | 4.4
Cc1cc(NC(=O)c2ccc3c(c2)N(C)CCS3)ccc1Br | -9.4
O=C1NC(=O)C(Cc2ccc(C(=O)O)cc2)S1 (stereo not drawn) | 0.2&-9.3

Results, from the start:
SMILES | HCMV UL50-53 inh
Nc1ncnc2c1C(=O)N(c1ccc(C3CCC(CC(=O)O)CC3)cc1)CCO2 (stereo not drawn) | 4.4
Cc1cc(NC(=O)c2ccc3c(c2)N(C)CCS3)ccc1Br | -9.4
O=C1NC(=O)C(Cc2ccc(C(=O)O)cc2)S1 (stereo not drawn) | 0.2&-9.3
Cc1ccc(SCc2cn3c(C)csc3n2)cc1 | -13.9
CC(C)(C)c1ccc(C(=O)Nc2c3c(nn2-c2cccc(Cl)c2)CS(=O)C3)cc1 (stereo not drawn) | 3.5
Cn1cccc1/C=C1\C(=O)NC(=O)c2ccccc21 | 53.0
CC1(C)CC(Nc2nccc(-c3cnn(-c4ccccc4)c3)n2)CC(C)(C)N1 | 45.1&45.1
Oc1ccccc1/C=N/c1ccccn1 | -5.3
NCCCCCCNS(=O)(=O)c1cccc2c(Cl)cccc12 | -30.5
COC(=O)c1ccc2nc(NC(=O)C3CC3)sc2c1 | 0.5
COc1ccc(C(=O)CSc2nc3ccccc3[nH]2)c(OC)c1 | -27.6
Cc1c(C(=O)N2CCCC2)sc2nc(-c3ccccc3)cn12 | -10.1
COc1cccc(/C=C2\SC(=S)N(CCCC(=O)Nc3ccccc3C(F)(F)F)C2=O)c1 | 4.0
Cc1ccc(C)c2[nH]c(=O)c(CCNC(=O)C(C)Oc3ccccc3)cc12 (stereo not drawn) | -18.4
Cc1cccc(Cn2c(CO)nc3ccccc32)c1 | -7.4
NS(=O)(=O)c1cc(C(=O)O)cc(N2CCCC2)c1Oc1ccccc1 | -1.3
CCOC(=O)CSc1ccc2ccccc2n1 | -23.4
CC(=O)Oc1ccc2c(-c3ccccc3)cc(=O)oc2c1C | -3.3
N[C@H](CSC(c1ccccc1)(c1ccccc1)c1ccccc1)C(=O)O | -5.1
CCCCC/C=C\C/C=C\CCCCCCCC(N)=O | -9.7

Looked up by compound from the list above, 3 records:
SMILES | HCMV UL50-53 inh
Cc1ccc(C)c2[nH]c(=O)c(CCNC(=O)C(C)Oc3ccccc3)cc12 (stereo not drawn) | -18.4
Cc1c(C(=O)N2CCCC2)sc2nc(-c3ccccc3)cn12 | -10.1
COc1cccc(/C=C2\SC(=S)N(CCCC(=O)Nc3ccccc3C(F)(F)F)C2=O)c1 | 4.0

Following part.
SMILES | HCMV UL50-53 inh
O=C(O)Cc1ccc(OCCNC[C@H](O)c2ccccc2)cc1 | -4.0
O=C1CN(S(=O)(=O)c2cccs2)c2ccccc2N1 | -8.6
CCOc1ccc(S(=O)(=O)NC2CC(C)(C)NC(C)(C)C2)c2ccccc12 | -10.5
NC(N)=NC(N)=Nc1cc(C(F)(F)F)ccc1Cl | -4.2
Cc1cccc(NC(=O)c2cc3c(ccc4ccccc43)oc2=O)c1 | -22.9
C#C[C@@]1(OC(C)=O)CC[C@H]2[C@@H]3CCC4=CC(OC(C)=O)CC[C@@H]4[C@@H]3CC[C@@]21C (stereo partly drawn) | -14.5
O=C(CN1C(=O)CCC1=O)Nc1ccc2c3c(cccc13)CC2 | -43.4
COc1ccc(-c2ncnc3sc(C)c(C)c23)c2cccnc12 | -68.6&-68.6
COc1ccc2cc(CCNC(=O)Cc3ccccc3)c(=O)[nH]c2c1 | -0.7
COc1ccc2c3n(c(=NC(=O)c4cccnc4)nc2c1OC)CCN3 | -26.3&-25.1&-28.9&-7.2
COCCN1C(=O)c2oc3ccc(Br)cc3c(=O)c2C1c1ccc(Cl)cc1 (stereo not drawn) | 0.2
Cc1cn(-c2cc(NC(=O)c3ccc(C)c(NC(=O)c4cccc(-c5cn[nH]c(=O)c5)c4)c3)cc(C(F)(F)F)c2)cn1 | 26.3
CC12CCC(C1)C(C)(C)C2OCC(O)CN1CCN(c2cccc(Cl)c2)CC1 (stereo not drawn) | -11.7
O=C(Oc1ccccc1)Oc1cccc2ccccc12 | -13.0
CC(C)CC(=O)Nc1c2c(nn1-c1ccc(Cl)cc1)CSC2 | -21.2
CN(C)CCCSC(=N)N | 6.1&-31.2
O=C(Nc1ccc(SC(F)(F)F)cc1)C(F)(F)F | -2.5
O=C1CC(c2nc3ccccc3[nH]2)CN1c1ccccc1 (stereo not drawn) | 6.3&-13.5
Nc1nn(-c2cccc(F)n2)cc1-c1ccc(Cl)cc1 | -14.2
CCCCCCCC/C=C\CCCCCCCC(=O)OCC(CO)OC(=O)CCCCCCC/C=C\CCCCCCCC (stereo not drawn) | 3.6
CCCCn1c(CNC(=O)c2ccc(OC)cc2)nnc1SC(C)C | -20.6
CC(=O)N[C@@H](CC(C)C)C(=O)N1CCC(n2cc(C(C)(C)N)nn2)CC1 | -10.7
O=C(O)c1cccnc1Nc1ccc(Cl)cc1 | -25.2
CCn1c(SCC(N)=O)nnc1-c1c[nH]c2ccccc12 | -16.1
COc1ccc(/C=C2/SC(=S)N(C)C2=O)c(OC)c1 | 1.8
O=C(O)Cc1c2ccccc2n2c1[nH]c(=O)c1ccccc12 | -10.8
COc1cccc(-c2cc3c(n(Cc4ccccn4)c2=O)CCN(C(=O)c2csc(C)n2)C3)c1 | -18.8
O=C(Nc1c2c(nn1-c1ccccc1)CSC2)c1ccccc1 | -20.8
NC(=O)CCn1c(=O)oc2ccccc21 | 1.7
OC(COc1cccc2ncccc12)CN1CCN(C2c3ccccc3C3C(c4ccccc42)C3(F)F)CC1 (stereo not drawn) | -5.6

Ordered by count of non-hydrogen atoms (falling): some entries from above
SMILES | HCMV UL50-53 inh
CCCCn1c(CNC(=O)c2ccc(OC)cc2)nnc1SC(C)C | -20.6
CCn1c(SCC(N)=O)nnc1-c1c[nH]c2ccccc12 | -16.1
COc1ccc(/C=C2/SC(=S)N(C)C2=O)c(OC)c1 | 1.8
NC(=O)CCn1c(=O)oc2ccccc21 | 1.7

Later entries
SMILES | HCMV UL50-53 inh
CCOc1ccc(C(CC(=O)O)N2Cc3ccccc3C2=O)cc1 (stereo not drawn) | -1.3
FC(F)(F)c1cc(C(F)(F)F)n2nc(-c3ccccc3)cc2n1 | -1.5
CC(C)(C)NC(=O)C1CC[C@H]2[C@@H]3CC[C@H]4NC(=O)C=C[C@]4(C)[C@@H]3CC[C@]12C (stereo partly drawn) | 8.7
O=S(=O)(N1CCOCC1)n1cnc2ccccc21 | -8.5
CN1N=Nc2ccc(Br)cc2C1c1ccccc1 (stereo not drawn) | -13.7
Nc1c(-c2ccccc2)cnn1-c1ccc2c(C(F)(F)F)cc(C(F)(F)F)nc2n1 | -7.5
Cc1ccc(OCc2cn3cccnc3n2)cc1 | -14.4
N#CC(C#N)=C(N)COc1cccc(C(F)(F)F)c1 | -3.5
CCN(CC)CCOCCOC(=O)C(CC)(CC)c1ccccc1 | -7.6&-32.4
c1ccn2cc(CCNc3ncnc4nc[nH]c34)nc2c1 | 43.5&43.5
Cc1ccc(N2C(=O)N(C)c3ccccc3S2(=O)=O)cc1 | 9.7
CCOC(=O)c1cnn(-c2ccccc2)c1-n1cccc1 | 2.8
CCn1c(CCCNC(=O)c2cccc(C)c2)nc2ccccc21 | -2.9
COC1C=CO[C@@]2(C)Oc3c(C)c(O)c4c(O)c(c(C=NN5CCN(C6CCCC6)CC5)c(O)c4c3C2=O)NC(=O)C(C)=CC=CC(C)C(O)C(C)C(O)C(C)C(OC(C)=O)C1C (stereo partly drawn) | -84.3&-177.1
CSc1oc(-c2ccco2)nc1S(=O)(=O)c1ccc(F)cc1 | -18.3
CCC(CC)C(=O)NCc1ccc2[nH]c3c(c2c1)CCCC3 | 0.7
COc1cccc(C(=O)Nc2nc(-c3cccs3)cs2)c1 | -17.4
CCCCC(CC)COc1ccc(-c2nc(-c3ccc(OC)cc3)nc(-c3ccc(OCC(CC)CCCC)cc3O)n2)c(O)c1 (stereo not drawn) | -68.2
O=C(CC1Nc2ccccc2NC1=O)Nc1ccccc1 (stereo not drawn) | -30.6
CCCC(=O)NCc1ccc2c(c1)cc(C)n2C | -9.4
Cc1ccc2[nH]c(=O)c(CN3CCCCC3)c(-c3ccccc3)c2c1 | -9.5
CC1(C)C2CCC1(CS(=O)(=O)Nc1ccc(F)c(Cl)c1)C(=O)C2 (stereo not drawn) | -0.8
COc1ccc(C(=O)CSc2nc3ccccc3n2C)c(F)c1 | -2.0
CCOC(=O)Cn1c(=NC(=O)c2ccccc2Br)sc2cc(C)ccc21 | -11.0
CC1(C)CC(=O)C2=C(C1)OC(N)=C(C#N)C2CCc1ccccc1 (stereo not drawn) | -19.3
O=C(O)CSc1nnc(-c2ccncc2)n1-c1ccccc1 | -16.7
Cc1ccc2c(Cl)cc(Cl)c(O)c2n1 | -39.2&-65.6
Cc1ccc(C(CC(=O)c2ccco2)Sc2ccccc2N)cc1 (stereo not drawn) | -19.5
O=C(CCn1cccc(C(F)(F)F)c1=O)Sc1ccccc1 | 3.7
Cc1cccc(COc2ccc3ccc(=O)oc3c2)c1 | -21.7
Cc1ccc(-c2nn3cnnc3c3ccccc23)cc1 | -2.2
CC(=O)N=c1sc2cc(C)ccc2n1C | -22.0
CCCCn1c(CNC(=O)Cc2ccccc2)nc2ccccc21 | -10.0
CCn1c(SCc2nc3ccccc3[nH]2)nnc1-c1ccccc1 | -1.7
CCCCCCCCCCCCCC(=O)N[C@H](C)[C@@H](O)c1ccccc1 | -7.8&-7.8&-17.1
CC(C)(C)C(=O)Nc1cccc2[nH]ncc12 | 7.2
c1ccc2cc(C3=NCCN3)ncc2c1 | -13.5
O=C(CCN1CCN(Cc2ccccc2)CC1)Nc1ccc2c(c1)OCO2 | -10.0
C=CCSc1nc(N)c(C#N)c(-c2ccc(C)cc2)c1C#N | 1.0
COc1ccc(-c2nnn(-c3cccc(C(F)(F)F)c3)c2N)cc1OC | -9.2
Cc1cccc(C(=O)Nc2nnc(/N=C/c3ccc(Br)s3)s2)c1 | -21.0
COc1cc(COc2cc(N)c(Cl)cc2C(=O)CCC2CCN(CCNS(C)(=O)=O)CC2)cc(OC)c1 | 0.6
Cc1nc2ccccc2n1CC(=O)N(c1ccccc1)C(C)C | -18.3
O=C1[C@@H]2C[C@@H](O)CN2C(=O)[C@H]2CN(Cc3ccc(CN4CCCCC4)s3)CCN12 | -7.1
CC(=O)Nc1nc2c(Oc3cc(-c4ccc(C(F)(F)F)cc4)ncn3)cccc2s1 | -7.4
N#Cc1ccsc1NC(=O)c1ccc2ncsc2c1 | -15.6
N#Cc1c(-c2ccccc2)cc(C2CC2)nc1SCC(=O)O | -7.0
NC(=O)CSc1ccc2nnc(-c3ccccc3)n2n1 | -10.1
CCCCN1C(=O)C2ON(c3ccccc3)C(c3cc(Br)ccc3O)C2C1=O (stereo not drawn) | -8.9
O=c1c2c3c(sc2nc(SCCO)n1-c1ccccc1)CCCC3 | -0.1
Remaining list, next part:
SMILES | HCMV UL50-53 inh
O=C(Cc1ccccc1)NCc1nc2ccccc2n1Cc1ccccc1F | -6.4
CCC(C(=O)NCc1ccc2[nH]c(C)cc2c1)c1ccccc1 (stereo not drawn) | -0.3
CC(=O)Oc1cc2c(s1)CCN(C(C(=O)C1CC1)c1ccccc1F)C2 (stereo not drawn) | -24.1&-22.9
Cc1ccccc1-c1c(C)oc2cc(O)ccc2c1=O | -9.5
CC1(C(=O)O)NCCc2cc(O)c(O)cc21 (stereo not drawn) | -29.5
COc1ccc(-c2cc(C3CC3)nc3sc(C(N)=O)c(N)c23)cc1 | -38.3
Nc1nc(Nc2ccccc2)nc2c1ncn2[C@@H]1O[C@H](CO)[C@@H](O)[C@H]1O | -0.7
N#Cc1c(C2CCNCC2)cc(-c2c(O)cccc2OCC2CC2)nc1N | -28.6
CC[C@@H](CO)Nc1nc(NCc2ccccc2)c2ncn(C(C)C)c2n1 | -7.1
Cc1nc2cc(C(=O)NCc3ccccn3)ccc2n1-c1cccc(F)c1 | -13.0
Cc1ccc(C)n1C(CC(=O)O)c1ccc2c(c1)OCO2 (stereo not drawn) | 6.3
C[C@H]1[C@H](C)CC[C@]2(C(=O)O)CC[C@]3(C)C(=CC[C@@H]4[C@@]5(C)CC[C@H](O)C(C)(C)[C@@H]5CC[C@]43C)[C@H]12 | 0.7
O=C1C2C3C=CC(C3)C2C(=O)N1c1cccnc1 (stereo not drawn) | -10.3
O=C1/C(=C\Nc2ccc(F)cc2)CCN1c1ccc(Cl)cc1 | -6.6
O=C(O)CCCN1CCS(=O)CC1 | 9.1
O=C(Nc1cccnc1)C1CCN(C(=O)c2ccccc2Cl)CC1 | 37.1&37.1
Cc1ccc(C2CC(=O)CC(c3ccccc3)S2)cc1 (stereo not drawn) | -10.4
CC(C)(C)C(=O)Nc1nnc(/N=C/c2ccc(Br)s2)s1 | -45.9
CC1(C)CN(c2cccc(-c3ccnc4ncnn34)c2)C1=O | 2.7
CCOC(=O)N1CCC(N2CCc3c(cc(-c4cccc(OC)c4OC)c(=O)n3CC3CC3)C2)CC1 | -5.2
O=C(Nc1cccnc1)c1ccc(-c2cc(Cl)ccc2Cl)o1 | -5.3
Cc1nc(SCC(=O)c2ccc(Cl)cc2)c(C#N)c(C)c1C | -24.5
O=S(=O)(c1cccc(C(F)(F)F)c1)N1CCOCC1 | -3.6
O=C(COc1ccccc1)Nc1sc2c(c1C(=O)NCC1CCCO1)CCCC2 (stereo not drawn) | -0.2
CC/C=C\C/C=C\C/C=C\CCCCCCCC(=O)N[C@@H](Cc1ccc(O)cc1)C(=O)O | -1.0&-1.0
Cn1c(COc2ccccc2)nc2ccccc21 | -25.0
CC(C)(C)c1nc2sc3c(c2c(=O)o1)CCCC3 | 11.2
Cc1c(C#N)c(N)nc(SCC(N)=O)c1C#N | -9.2
CCOC(=O)CSc1ncnc2c1oc1ccccc12 | 7.5
CCOC(Cn1c(-c2ccc(OC)cc2)nc2ccccc21)OCC | 17.0&4.0
CC(N)CCCC(C)(C)O (stereo not drawn) | -19.6
Cc1ccc2cccc(OC(=O)c3ccccc3F)c2n1 | -11.3&-16.9
NC(=O)CCCSc1nc(N)nc(-c2c(Cl)cc3c4c(cccc24)COC3)n1 | -30.6

These rows are one share of the data, so the mix of outcomes need not match the whole.
